From PubChem BioAssay
PKD1 inh – inhibitors of human PKD1 kinase, biochemical, fluorescence polarization; Serine/threonine-protein kinase D1 (Homo sapiens), Q15139; PKD1 kinase fluorescence polarization assay; inhibition, %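 (about 10 µM by stock and volumes)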; 0.056% of 200,000 active; AID 797, 2007;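 active = inhibition of 50% or more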;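 note: controls were vehicle for no effect and a reference inhibitor for full effect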
INS promoter inh – inhibitors of insulin promoter-driven GFP, primary screen, imaging, TRM-6 cells (human fetal islet line), eGFP reporter, cell count; AID 1273, 2008; 0.9% of 130,000 active; inhibition, % at 2 µM; reporter expression induced with tamoxifen;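 active = inhibition above the mean plus 3 SD, with well images judged a real hit on visual review, cut at about 60% in these data, passing the limit was not always enough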
HSV replic up – enhancers of HSV replication in host cells, fold increase, host cell viability. HSV replication augmentation in cells. maximum fold increase. 0.005% of 220,000 active. AID 1956, 2009;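 active = peak rise of 1.5-fold or more in the series; tested in PC3 cells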;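 note: first round at 10 µM; read as green reporter fluorescence; hits show the peak of a series up to 25 µM; 1 = signal of infected wells without compound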
RGS16-Gao – modulators of RGS16 binding to Galphao, primary screen, biochemical, human proteins, multiplexed bead flow cytometry; bead-based flow cytometry RGS16-Galphao binding, fluorescence; actives lie on both sides; binding response (% of control), % at 10 µM; 0.38% of 220,000 active; AID 1441, 2008; Regulator of G-protein signaling 16 (Homo sapiens) + Guanine nucleotide-binding protein …;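 active = below 25% or above 175%, edge rows of some plates excepted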;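 note: Galphao activated by GDP with aluminum fluoride before binding; 100% = wells without compound and 0% = beads without RGS; some results beyond the cut were filed as inactive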
Target sequence (O15492 whole entry, looked up): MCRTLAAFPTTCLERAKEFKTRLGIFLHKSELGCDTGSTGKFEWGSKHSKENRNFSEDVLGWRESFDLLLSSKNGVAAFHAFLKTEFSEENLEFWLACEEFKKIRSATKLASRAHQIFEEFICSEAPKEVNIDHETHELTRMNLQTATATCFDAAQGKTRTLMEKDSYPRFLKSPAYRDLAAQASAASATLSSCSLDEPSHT
Target sequence (P09471 whole entry, looked up): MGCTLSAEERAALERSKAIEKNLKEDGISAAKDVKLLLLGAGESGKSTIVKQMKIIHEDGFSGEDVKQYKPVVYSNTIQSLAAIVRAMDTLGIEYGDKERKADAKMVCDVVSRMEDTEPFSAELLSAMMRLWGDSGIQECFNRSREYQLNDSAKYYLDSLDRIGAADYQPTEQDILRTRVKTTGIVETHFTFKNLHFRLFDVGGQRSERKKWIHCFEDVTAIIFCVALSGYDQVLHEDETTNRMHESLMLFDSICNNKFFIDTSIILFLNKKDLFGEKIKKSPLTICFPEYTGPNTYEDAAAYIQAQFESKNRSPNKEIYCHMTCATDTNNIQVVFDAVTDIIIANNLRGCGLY
GALR2 agonist – GALR2 receptor agonists, primary screen, cell-based; Galanin receptor type 2 (Homo sapiens), O43603; GALR2-expressing cells, agonist activation read-out; activation, %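 (tested at 5 µM)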; 0.48% of 140,000 active;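 active = above mean plus 3 SD of all compounds, about 5% in these data, not always enough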;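 note: 0% = vehicle buffer wells and 100% = reference agonist at full effect; tested in CHO reporter cells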
Target sequence (O43603 whole entry, looked up): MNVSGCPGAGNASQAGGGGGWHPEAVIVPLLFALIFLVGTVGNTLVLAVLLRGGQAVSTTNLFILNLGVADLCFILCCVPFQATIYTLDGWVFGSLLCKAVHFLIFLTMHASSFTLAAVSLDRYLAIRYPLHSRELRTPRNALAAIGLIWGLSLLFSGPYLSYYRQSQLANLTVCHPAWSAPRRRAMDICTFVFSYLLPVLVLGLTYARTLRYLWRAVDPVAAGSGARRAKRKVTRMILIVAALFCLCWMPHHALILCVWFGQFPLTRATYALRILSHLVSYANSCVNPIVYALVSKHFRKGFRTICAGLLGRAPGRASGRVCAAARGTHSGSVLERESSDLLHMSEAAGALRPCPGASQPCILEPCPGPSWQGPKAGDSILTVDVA
INS promoter inh cell count – recorded beside INS promoter inh, whose call it bears; normalized cell count, %; measured here: cell count, toxicity; reference of the scale not given here;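 cells exposed to compound for 48 h; stained nuclei by imaging scaled within each plate; lower means fewer cells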
HSV replic up primary fold – second read-out of HSV replic up, no call of its own (marks repeat the call); fold increase; compound at 10 µM; measured here: primary screen fold increase 10 uM; tested in PC3 cells;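 GFP signal in the first replicate; 1 = infected wells without compound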
* hit, by the source's call.

What do the screens show for `O=C(O)C1CCCN1C(=O)Nc1ccccc1` (stereo not given)?
PKD1 inh: -5; INS promoter inh: -121; HSV replic up: inactive; RGS16-Gao: 111; GALR2 agonist: -1.1; INS promoter inh cell count: 134; HSV replic up primary fold: 0.67

Results for Cc1ccc(CN2C(=O)N/C(=C\c3ccc(N4CCOCC4)cc3)C2=O)cc1 ?
PKD1 inh: 5; HSV replic up: inactive; RGS16-Gao: 102; GALR2 agonist: 8.7*; HSV replic up primary fold: 0.88

What do the screens show for `CCC1CCCN1Cn1cnc2c([nH]c3ccc(OC)cc32)c1=O` (stereo not given)?
PKD1 inh: -6; INS promoter inh: 9; HSV replic up: inactive; RGS16-Gao: 125; GALR2 agonist: -1.2; INS promoter inh cell count: 113; HSV replic up primary fold: 0.9

What do the screens show for `Cn1c(-c2ccc(-c3ccccc3)cc2)c[nH]c1=S`?
PKD1 inh: 0; INS promoter inh: 5; HSV replic up: inactive; RGS16-Gao: 77; GALR2 agonist: -1.5; INS promoter inh cell count: 149; HSV replic up primary fold: 0.85

What do the screens show for `O=C(/C=C\c1ccc2c(c1)OCO2)NC1(C(=O)Nc2ccc3c(c2)OCCO3)CCCCC1`?
PKD1 inh: 1; INS promoter inh: 12; HSV replic up: inactive; RGS16-Gao: 110; GALR2 agonist: 0.3; INS promoter inh cell count: 106; HSV replic up primary fold: 1

What do the screens show for `O=C(Nc1ccccc1Cl)c1cc[n+](Cc2ccc([N+](=O)[O-])cc2)cc1`?
PKD1 inh: 0; HSV replic up: inactive; RGS16-Gao: 115; HSV replic up primary fold: 0.89

How did Cc1cccc(OCCC(=O)Nc2ccc(C)c(S(=O)(=O)N3CCCCC3)c2)c1 do in these assays?
PKD1 inh: 6; INS promoter inh: -65; HSV replic up: inactive; RGS16-Gao: 105; GALR2 agonist: -0.6; INS promoter inh cell count: 81; HSV replic up primary fold: 0.92

Results for Cc1cc2c(c(=O)n1CCN(C)C)C(c1ccc(Cl)cc1)C(C#N)=C(N)O2 (stereo not given) ?
PKD1 inh: -7; INS promoter inh: 46; HSV replic up: inactive; RGS16-Gao: 101; GALR2 agonist: -1.6; INS promoter inh cell count: 142; HSV replic up primary fold: 1.1

How did Clc1ccc(CNc2cnccn2)cc1 do in these assays?
PKD1 inh: 2; INS promoter inh: 0; HSV replic up: inactive; RGS16-Gao: 114; INS promoter inh cell count: 97; HSV replic up primary fold: 0.98

How did O=C(NCc1ccccn1)NC1CCCCC1 do in these assays?
PKD1 inh: -2; INS promoter inh: -13; HSV replic up: inactive; RGS16-Gao: 95; GALR2 agonist: -0.9; INS promoter inh cell count: 111; HSV replic up primary fold: 1

Results for CCc1ccc(NC(=O)Cc2cn(C)c3ccccc23)cc1 ?
PKD1 inh: -3; INS promoter inh: -23; HSV replic up: inactive; RGS16-Gao: 105; GALR2 agonist: -1.5; INS promoter inh cell count: 119; HSV replic up primary fold: 0.9

What do the screens show for `S=C(NCCCN1CCOCC1)N1CCN(c2nc(-c3ccc(Cl)cc3)cs2)CC1`?
PKD1 inh: 2; INS promoter inh: -7; HSV replic up: inactive; RGS16-Gao: 104; INS promoter inh cell count: 148; HSV replic up primary fold: 0.84

What do the screens show for `COc1ccc(C(=O)N2c3ccc(F)cc3CCC2C)cc1OC` (stereo not given)?
PKD1 inh: 0; INS promoter inh: -47; HSV replic up: inactive; RGS16-Gao: 98; GALR2 agonist: 0.9; INS promoter inh cell count: 104; HSV replic up primary fold: 0.95

How did FC(F)(F)c1nnc(-c2ccccc2)nc1Oc1ccccc1 do in these assays?
PKD1 inh: -4; INS promoter inh: -11; HSV replic up: inactive; RGS16-Gao: 104; GALR2 agonist: -0.2; INS promoter inh cell count: 118; HSV replic up primary fold: 0.9

What do the screens show for `O=C(NNS(=O)(=O)c1ccc(Cl)cc1)C1CCN(Cc2ccccc2)CC1`?
PKD1 inh: -9; INS promoter inh: -61; HSV replic up: inactive; RGS16-Gao: 130; GALR2 agonist: -1.9; INS promoter inh cell count: 90; HSV replic up primary fold: 0.85

How did O=C(Oc1cccc(NC(=O)c2ccco2)c1)c1cccc(S(=O)(=O)N2CCCC2)c1 do in these assays?
PKD1 inh: 8; HSV replic up: inactive; RGS16-Gao: 89; GALR2 agonist: -2.2; HSV replic up primary fold: 0.66

How did N/C(=N\OC(=O)COc1ccccc1)c1ccccn1 do in these assays?
PKD1 inh: -2; INS promoter inh: 14; HSV replic up: inactive; RGS16-Gao: 112; GALR2 agonist: 0.6; INS promoter inh cell count: 130; HSV replic up primary fold: 0.84

Results for CCOC(=O)NCc1ccc2c(c1)OCO2 ?
PKD1 inh: -14; INS promoter inh: 16; HSV replic up: inactive; RGS16-Gao: 92; GALR2 agonist: -2.6; INS promoter inh cell count: 88; HSV replic up primary fold: 0.89

How did Cn1c(=O)c2c(n(Cc3ccccc3)c1=O)NC(=O)C2CC(=O)N1CCc2ccccc2C1 (stereo not given) do in these assays?
PKD1 inh: -8; INS promoter inh: -5; HSV replic up: inactive; RGS16-Gao: -1.0*; GALR2 agonist: -0.7; INS promoter inh cell count: 149; HSV replic up primary fold: 0.96

What do the screens show for `Cc1ccsc1/C=C(\C#N)C(=O)Nc1c(C)n(C)n(-c2ccccc2)c1=O`?
PKD1 inh: -1; INS promoter inh: -6; HSV replic up: inactive; RGS16-Gao: 99; GALR2 agonist: -0.7; INS promoter inh cell count: 97; HSV replic up primary fold: 0.88

How did COc1ccc(-c2[nH]nc3oc(=O)cc(C)c23)cc1 do in these assays?
PKD1 inh: -1; INS promoter inh: -50; HSV replic up: inactive; RGS16-Gao: 96; GALR2 agonist: -0.1; INS promoter inh cell count: 99; HSV replic up primary fold: 0.95

How did Cc1ccccc1NC(=S)N(CCCN1CCC(C)CC1)Cc1ccco1 do in these assays?
PKD1 inh: -3; INS promoter inh: -109; HSV replic up: inactive; RGS16-Gao: 102; GALR2 agonist: -0.6; INS promoter inh cell count: 86; HSV replic up primary fold: 1

Results for CCCCn1c(SCc2ccccn2)nc2c1c(=O)n(C)c(=O)n2C ?
PKD1 inh: 3; INS promoter inh: -138; HSV replic up: inactive; RGS16-Gao: 100; GALR2 agonist: 0.7; INS promoter inh cell count: 73; HSV replic up primary fold: 1

Results for Cc1c(NC(=O)c2ccc(N3CCCC3)c([N+](=O)[O-])c2)cccc1-c1nc2ccccc2s1 ?
PKD1 inh: -4; INS promoter inh: 21; HSV replic up: inactive; RGS16-Gao: 113; GALR2 agonist: -2.5; INS promoter inh cell count: 59; HSV replic up primary fold: 0.73

What do the screens show for `COCCNc1c(-c2ccc(OC)cc2)nc2ccc(Cl)cn12`?
PKD1 inh: 1; HSV replic up: inactive; RGS16-Gao: 109; HSV replic up primary fold: 0.98

How did COc1ccccc1NCCC(=O)OCC(=O)NCc1ccco1 do in these assays?
PKD1 inh: -2; HSV replic up: inactive; RGS16-Gao: 107; GALR2 agonist: -0.2; HSV replic up primary fold: 1.1

How did CCOc1ccccc1NC(=O)CSc1c(C)n[nH]c1C do in these assays?
PKD1 inh: -6; INS promoter inh: -14; HSV replic up: inactive; RGS16-Gao: 100; GALR2 agonist: -2.6; INS promoter inh cell count: 146; HSV replic up primary fold: 0.87

How did Cc1nc2c(c(C)c1C#N)C(=O)c1ccccc1-2 do in these assays?
PKD1 inh: -15; INS promoter inh: 11; HSV replic up: inactive; RGS16-Gao: 105; GALR2 agonist: 0.5; INS promoter inh cell count: 73; HSV replic up primary fold: 0.97

Results for CN1/C(=C\C(=O)c2cccs2)C(C)(C)c2ccccc21 ?
PKD1 inh: 6; HSV replic up: inactive; RGS16-Gao: 110; GALR2 agonist: 4.2; HSV replic up primary fold: 0.98

Results for Cc1ccc(S(=O)(=O)N2CCN(C3CC(=O)N(CCc4ccccc4)C3=O)CC2)cc1C (stereo not given) ?
PKD1 inh: -7; INS promoter inh: -12; HSV replic up: inactive; RGS16-Gao: 95; GALR2 agonist: -1.5; INS promoter inh cell count: 150; HSV replic up primary fold: 1.1

How did COc1cccc(COc2ncnc3sccc23)c1 do in these assays?
PKD1 inh: 3; INS promoter inh: -33; HSV replic up: inactive; RGS16-Gao: 108; INS promoter inh cell count: 126; HSV replic up primary fold: 1.1

Results for Cc1[nH]n(-c2ccccc2)c(=O)c1C(=O)c1ccccc1 ?
HSV replic up: inactive; RGS16-Gao: 94; HSV replic up primary fold: 0.97

Results for Cc1cc([N+](=O)[O-])c2c(c1C)C1C=CCC1C(c1ccccn1)N2 (stereo not given) ?
PKD1 inh: -6; INS promoter inh: 8; HSV replic up: inactive; RGS16-Gao: 103; INS promoter inh cell count: 46; HSV replic up primary fold: 1

What do the screens show for `O=C(CSc1cccc[n+]1[O-])Nc1cc2c(cc1Cl)C(=O)c1ccccc1C2=O`?
PKD1 inh: -12; INS promoter inh: -40; HSV replic up: inactive; RGS16-Gao: 46; GALR2 agonist: -0.2; INS promoter inh cell count: 24; HSV replic up primary fold: 0.97

What do the screens show for `CC1(C)CC(=O)C2=C(C1)N(c1ccccc1)C(N)=C(C#N)C2c1ccccc1` (stereo not given)?
PKD1 inh: -6; INS promoter inh: -90; HSV replic up: inactive; RGS16-Gao: 100; GALR2 agonist: -0.8; INS promoter inh cell count: 100; HSV replic up primary fold: 0.91

What do the screens show for `CCOc1ccc(/C=N/n2c(C)nnc2C)cc1OC`?
PKD1 inh: -4; HSV replic up: inactive; RGS16-Gao: 245; HSV replic up primary fold: 1.1

How did CCCc1nn(CCc2ccccn2)c(N)c1CC do in these assays?
PKD1 inh: -8; INS promoter inh: 69*; HSV replic up: inactive; RGS16-Gao: 99; GALR2 agonist: -1.3; INS promoter inh cell count: 127*; HSV replic up primary fold: 0.92

How did CN1C(=O)C2(C(C#N)=C(N)N(c3ccc(Cl)cc3)C3=C2C(=O)CC(C)(C)C3)c2ccccc21 (stereo not given) do in these assays?
PKD1 inh: 5; INS promoter inh: 17; HSV replic up: inactive; RGS16-Gao: 102; GALR2 agonist: -1.5; INS promoter inh cell count: 104; HSV replic up primary fold: 1.1

How did O=C(/C=C/Sc1ccc(C(F)(F)F)cn1)c1ccccc1 do in these assays?
HSV replic up: inactive; RGS16-Gao: 100; HSV replic up primary fold: 0.62

What do the screens show for `CC(=O)c1cccc(NS(=O)(=O)c2c(C)n[nH]c2C)c1`?
PKD1 inh: 5; INS promoter inh: -31; HSV replic up: inactive; RGS16-Gao: 98; GALR2 agonist: -1.5; INS promoter inh cell count: 156; HSV replic up primary fold: 0.94

What do the screens show for `COCCN(C(=O)CC(C)(C)C)c1nnc(-c2cccnc2)s1`?
PKD1 inh: -4; INS promoter inh: -238; HSV replic up: inactive; RGS16-Gao: 103; GALR2 agonist: -1.5; INS promoter inh cell count: 95; HSV replic up primary fold: 0.87

What do the screens show for `CC(C)c1onc(C(=O)N2CCOCC2)c1[N+](=O)[O-]`?
PKD1 inh: 2; HSV replic up: inactive; RGS16-Gao: 95; HSV replic up primary fold: 1

4 structures out of the list, ordered by heavy-atom count, falling:
What do the screens show for `CC1(C)CC(=O)C2=C(C1)N(c1ccccc1)C(N)=C(C#N)C2c1ccccc1` (stereo not given)?
PKD1 inh: -6; INS promoter inh: -90; HSV replic up: inactive; RGS16-Gao: 100; GALR2 agonist: -0.8; INS promoter inh cell count: 100; HSV replic up primary fold: 0.91

Results for Cc1[nH]n(-c2ccccc2)c(=O)c1C(=O)c1ccccc1 ?
HSV replic up: inactive; RGS16-Gao: 94; HSV replic up primary fold: 0.97

What do the screens show for `CCOc1ccc(/C=N/n2c(C)nnc2C)cc1OC`?
PKD1 inh: -4; HSV replic up: inactive; RGS16-Gao: 245; HSV replic up primary fold: 1.1

What do the screens show for `CC(C)c1onc(C(=O)N2CCOCC2)c1[N+](=O)[O-]`?
PKD1 inh: 2; HSV replic up: inactive; RGS16-Gao: 95; HSV replic up primary fold: 1
